Screening results deposited in PubChem BioAssay by several laboratories.
B2AR ag – human beta-2 adrenergic receptor agonism by FAP; P07550; Am2.2-beta2AR cells, FAP receptor internalization, flow cytometry; reference of the scale not given here; response, % (concentration not given with the values); actives 0.43% (n = 340,000); AID 504454;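 active means response above a set limit, near 3 SD of response in nonfluorescent compounds, cut at about 42% in these data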;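 further: stock transfer was 100 nL into about 11 µL; a reference agonist was the positive control; negative values mostly stem from fluorescent compounds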
HNF4A DNA FP – change in binding of human HNF4 alpha to DNA; P41235; HNF4a-FITC DNA binding, fluorescence polarization, 1 h; activity change, % at 10 µM; actives 0.3% (n = 360,000); AID 1224865; in the data active means activity change above about 30%, passing the limit was not always enough;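 further: controls were the assay level and a saturating level of protein; the project sought stronger binding though the title names inhibitors; some compounds called inactive have numbers as strong as hits; positive values seem to mean higher polarization but the record does not say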
LANA-H2A inh – blocks KSHV LANA binding to histone H2A/H2B. Q9QR71. cell-free LANA-H2A/H2B peptide, fluorescence polarization. inhibition, % (no concentration beside the values). actives 0.6% (n = 320,000); in the data active means inhibition mostly above about 10%, no sharp cut-off; inactive means mostly below about 6.7%;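 further: stock transfer was 7.5 nL into about 10 µL; 0% = median of vehicle wells and 100% = median of positive control wells; one replicate is shown; the record names a cut of 25% in any replicate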
Target sequence (Q9QR71 whole entry, looked up): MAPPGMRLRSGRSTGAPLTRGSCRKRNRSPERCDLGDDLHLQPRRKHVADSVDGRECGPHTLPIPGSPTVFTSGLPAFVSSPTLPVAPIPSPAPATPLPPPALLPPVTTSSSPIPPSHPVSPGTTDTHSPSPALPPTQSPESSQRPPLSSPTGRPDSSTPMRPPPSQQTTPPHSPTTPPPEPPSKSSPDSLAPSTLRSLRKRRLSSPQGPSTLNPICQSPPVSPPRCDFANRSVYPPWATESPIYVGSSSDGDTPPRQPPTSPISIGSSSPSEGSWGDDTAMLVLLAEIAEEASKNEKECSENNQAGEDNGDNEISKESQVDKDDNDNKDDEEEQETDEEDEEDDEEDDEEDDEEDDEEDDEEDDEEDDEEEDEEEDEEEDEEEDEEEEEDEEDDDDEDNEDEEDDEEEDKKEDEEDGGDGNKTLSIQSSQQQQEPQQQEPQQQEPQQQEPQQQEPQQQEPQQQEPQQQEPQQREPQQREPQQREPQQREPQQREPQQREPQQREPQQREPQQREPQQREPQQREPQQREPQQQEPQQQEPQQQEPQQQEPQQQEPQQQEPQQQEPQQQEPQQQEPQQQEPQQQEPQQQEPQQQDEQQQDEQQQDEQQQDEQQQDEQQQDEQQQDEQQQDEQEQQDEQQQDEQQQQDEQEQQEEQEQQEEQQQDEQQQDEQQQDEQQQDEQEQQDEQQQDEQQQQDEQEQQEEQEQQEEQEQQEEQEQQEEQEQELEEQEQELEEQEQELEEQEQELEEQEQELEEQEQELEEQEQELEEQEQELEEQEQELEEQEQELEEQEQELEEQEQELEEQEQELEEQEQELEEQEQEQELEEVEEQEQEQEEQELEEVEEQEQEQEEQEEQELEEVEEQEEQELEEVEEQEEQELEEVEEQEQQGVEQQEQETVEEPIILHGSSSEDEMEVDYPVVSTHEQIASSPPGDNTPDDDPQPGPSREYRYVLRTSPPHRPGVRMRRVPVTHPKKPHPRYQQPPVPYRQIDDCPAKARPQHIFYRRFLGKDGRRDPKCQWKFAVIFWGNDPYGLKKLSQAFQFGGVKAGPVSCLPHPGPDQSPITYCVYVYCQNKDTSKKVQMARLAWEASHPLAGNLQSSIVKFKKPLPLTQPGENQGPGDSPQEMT
Ecoli growth – blocks Escherichia coli growth; OD600, 23 h; active compounds read low; OD600 absorbance (test concentration not listed); actives 0.21% (n = 330,000);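 active means OD600 absorbance below the run mean of sample wells minus 3.6 SD, in any replicate, cut at about 0.56 in these data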;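 further: stock transfer was 300 nL into about 60 µL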
UCH37 inh – inhibitors of human deubiquitinating enzyme UCH37; inhibition, % (test concentration not listed); purified proteasome/UCH37, Ub-AMC cleavage fluorescence; AID 588478; Q9Y5K5; actives 0.33% (n = 330,000);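 active means mean of two replicates above 20%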;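 further: 0% = compound-free wells with enzyme and 100% = wells lacking proteasome; stock transfer was 100 nL into about 20 µL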
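Signal – fluorescence, ex 355 nm, em 460 nm · System – Proteasome-bound UCH37 · Input – 0.15 nM proteasome as dispensed · Timing – 30 min preincubation with enzyme, 25 min cleavage at room temperature · Read-out basis – percent inhibition of cleavage signal versus uninhibited and no-proteasome wells · Medium – Tris-HCl pH 7.4 with ATP-MgCl2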
A1 inh – inhibitors of the anti-apoptotic protein A1, read as caspase activation; actives 0.066% (n = 330,000); AID 2462; caspase activation, % (test concentration not listed); MEF A1-2A-BIM cells, Caspase-Glo 3/7 luminescence, 3 h; percent of clofoctol response, vehicle zero;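 active means over half of replicate activation scores above 10%, or exactly half above 10 with the replicate mean above 10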;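 further: wells of about 30 µL received 50 nL stock; many hits fall short of the cut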
Vif TR-FRET – HIV-1 Vif–A3G interaction blockers – biochemical, TR-FRET, GST-Vif 1-94, biotin-A3G peptide, dose response retest, primary screen (AID 1117319); TR-FRET GST-Vif / biotin-A3G peptide binding; higher % means a stronger effect; test concentration not given here; strong numbers were not always called active; inhibition, %; hits with a dose series show IC50 in µM; actives 0.57% (n = 260,000);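 active means above the screen mean plus three standard deviations and confirmed in dose response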;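 further: Vif residues 1-94 fused to GST binding biotinylated APOBEC3G peptide 110-148; 0% = full assay without inhibitor and 100% = GST in place of GST-Vif; retest series ran down from 100 µM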
* marks the source's active call; other numbers are inactive results; · = no result given.

SMILES	B2AR ag	HNF4A DNA FP	LANA-H2A inh	Ecoli growth	UCH37 inh	A1 inh	Vif TR-FRET
O=C(Nc1ccc(C(F)(F)F)cc1)c1ccccc1	-3.9	5.5	3.9	0.703	1.8	-6.6	·
CCOC(=O)c1[nH]c(C)c(/C(O)=C2\C(=O)C(=O)N(CCN(C)C)C2c2cccc(OC)c2OC)c1C (stereo not drawn)	-4.8	1.2	1.8	0.703	9.9	1.2	3.2%
CCOc1ccc(NC(=O)CN(C)C(=O)c2ccccc2SCC(=O)N2CCCC2)cc1OCC	-5.8	0.7	-1.1	0.645	1.0	1.6	-3.4%
OCc1ccnc2c(O)cccc12	18.2	-1.8	4.2	0.662	1.2	0.1	-4.1%
CSc1cccc(NS(=O)(=O)c2cc(Br)cnc2N)c1	4.7	-0.3	-5.0	0.683	5.5	-0.7	·
Cc1nn(-c2ccc(F)cc2)c(Cl)c1/C=N/NC(=O)c1cccs1	-17.6	0.4	0.4	·	·	0.4	·
O=[N+]([O-])c1cccc(S(=O)(=O)Nc2ccc(-c3ccc(N4CCCC4)nn3)cc2)c1	8.1	-3.9	5.0	0.642	1.1	0.5	6.9%
CCCc1cc(C(=O)N2CCCC(C(=O)c3ccc(Cl)cc3)C2)n(C)n1 (stereo not drawn)	-19.0	2.5	0.1	0.673	3.5	0.6	·
COc1ccc(CNC(=S)NCc2ccc(OC)cc2)cc1	32.0	4.8	-0.2	0.675	3.8	-1.0	-0.3%
C=C(C)CNC(=S)N1CCN(C(c2ccccc2)c2ccccc2)CC1	0.0	3.3	0.2	0.662	-4.4	-0.3	-0.3%
S=C(NC1CCCCC1)NC1CC2CCC(C1)N2Cc1ccccc1 (stereo not drawn)	-6.7	0.5	1.1	0.658	0.5	2.2	-7.7%
CC(C)(C)c1nc2sc3c(c2c(=O)o1)CCCC3	2.7	-2.6	-1.0	0.702	0.4	-0.2	-9.5%
COc1cc(C(=O)NC(=S)Nc2ccc([N+](=O)[O-])cc2C)cc(OC)c1OC	4.9	3.2	4.0	0.683	1.2	0.4	0.1%
COc1ccc(S(=O)(=O)Cc2ccc(C(=O)NC3CCC(C)CC3)o2)cc1 (stereo not drawn)	-3.5	9.9	-8.0	0.65	2.6	-1.2	·
CC(C)N1C(=O)CCC1C(=O)NCc1ccco1 (stereo not drawn)	-1.6	0.7	1.2	0.716	3.0	-0.1	-11.1%

The last three records of the part above lead into the next:
SMILES	B2AR ag	HNF4A DNA FP	LANA-H2A inh	Ecoli growth	UCH37 inh	A1 inh	Vif TR-FRET
COc1cc(C(=O)NC(=S)Nc2ccc([N+](=O)[O-])cc2C)cc(OC)c1OC	4.9	3.2	4.0	0.683	1.2	0.4	0.1%
COc1ccc(S(=O)(=O)Cc2ccc(C(=O)NC3CCC(C)CC3)o2)cc1 (stereo not drawn)	-3.5	9.9	-8.0	0.65	2.6	-1.2	·
CC(C)N1C(=O)CCC1C(=O)NCc1ccco1 (stereo not drawn)	-1.6	0.7	1.2	0.716	3.0	-0.1	-11.1%
O=C(NCc1ccncc1)C(=O)NCC1OCCN1S(=O)(=O)c1ccc(Br)cc1 (stereo not drawn)	0.0	-0.1	0.5	0.654	2.1	0.2	0.0%
CN1CN(C)C(c2ccncc2)=C1c1ccncc1	4.1	3.7	2.1	0.668	-0.2	0.6	9.3%
OCCN(Cc1ccccc1)c1ncnc2sccc12	4.8	4.2	-22.4	0.684	-1.1	0.1	4.2%
O=C(COc1ccccc1Cl)NC(=S)Nc1cccc(NC(=O)c2ccccc2Cl)c1	5.5	-2.5	-3.8	0.739	1.6	-0.1	0.7%
Cc1ccc(C)c(S(=O)(=O)N2CCCC2CNC(=O)C(=O)NCCN2CCOCC2)c1 (stereo not drawn)	3.5	-3.2	-4.2	0.651	0.8	0.6	4.2%
CCOc1ccc(OCc2ccc(C(=O)N3CCOCC3)cc2)cc1	-0.2	1.4	-0.3	0.715	-1.4	-0.6	-1.7%
COc1ccccc1S(=O)(=O)c1ccccc1[N+](=O)[O-]	-7.5	-2.3	-6.1	·	2.3	0.4	11.8%
COc1ccc(/C=C/C(=O)OCC(=O)Nc2cc(C(F)(F)F)ccc2Cl)cc1	2.0	0.3	-4.5	0.681	-7.7	0.2	·
c1cnc(N2CCN(Cc3ccc4c(c3)OCO4)CC2)cn1	-3.4	0.9	1.9	0.672	0.6	0.0	4.7%
O=C(NCCCc1ccccc1)c1cc(COc2ccc(F)cc2Cl)on1	-2.0	0.8	-0.6	0.628	1.2	0.2	·
CC(C)CCNC(=O)C(NS(=O)(=O)c1ccc2c(c1)c(=O)n(C)c(=O)n2C)c1ccccc1 (stereo not drawn)	3.7	-0.2	6.0	0.808	3.1	-0.2	-3.7%
CCc1nc(NCCC(C)C)c2nnn(Cc3ccccc3)c2n1	-14.1	0.5	-3.2	0.717	0.4	1.1	·
CC(C)NC(=O)c1ccc2c(c1)N(CC(=O)Nc1ccccc1F)C(=O)C(C)(C)O2	0.8	-2.3	-0.5	0.666	3.9	-0.1	·
O=C(c1cccs1)N1CCN(C(=O)N2CCOCC2)CC1	8.1	-4.4	3.7	0.734	3.4	-1.1	-2.1%
O=C(CSC1=NCCS1)Nc1ccc(S(=O)(=O)NC2CCCCC2)cc1	-11.8	0.2	1.2	0.621	2.3	0.5	-3.2%
CN(CC1CCOCC1)C(=O)CC1C(=O)NCCN1Cc1ccccc1F (stereo not drawn)	-5.3	0.4	2.1	0.725	-19.5	0.5	·
Cc1ccc(CN2CC(C(=O)Nc3cc(S(C)(=O)=O)ccc3Cl)CC2=O)cc1 (stereo not drawn)	-0.9	-3.7	-16.0	0.762	1.2	-0.4	7.7%
CCC(CC)NC(=O)/C=C/c1cccc([N+](=O)[O-])c1	-1.4	0.2	3.2	0.702	2.2	0.7	-3.0%
CCOc1ccc(NC(=O)CN(C)C(=O)CCC2CCCCC2)cc1OCC	5.0	-1.0	-2.3	0.701	5.0	-0.6	-4.8%
Cc1cc(OC(C)C(=O)NCC2CCC(C(=O)O)CC2)c2c(C)cc(=O)oc2c1 (stereo not drawn)	-2.5	-2.8	5.7	0.759	-109.3	-0.5	·
Fc1ccc(Nc2nc(-c3ccncc3)nc3ccccc23)cc1F	50.3*	19.3	5.8	0.747	-0.4	0.6	2.1%
CCCOc1cccc(C2C(C(=O)c3cccs3)=C(O)C(=O)N2Cc2cccnc2)c1 (stereo not drawn)	-0.2	-4.0	4.6	0.696	10.2	-0.7	-9.6%
O=C(/C=C/c1cccnc1)c1ccc(F)c(F)c1	2.2	2.8	-0.7	0.633	4.1	-0.9	·
COC(=O)c1ccc(CN2C(=O)NC(Cc3c[nH]c4ccccc34)C2=O)cc1 (stereo not drawn)	0.3	2.0	2.1	0.638	1.4	-0.1	·
O=C(Nc1ccccc1N1CCCCC1)c1ccc(Cl)c([N+](=O)[O-])c1	10.3	-2.0	4.1	0.666	-0.5	1.6	5.3%
COc1ccc(Oc2c(-c3ccc(O)cc3O)n[nH]c2C)cc1	-3.0	-0.5	-1.4	0.675	3.8	0.5	-4.9%
CCOc1ccccc1C(=O)OCC(=O)NCC1CCCCC1	8.0	-1.6	-0.5	0.663	0.5	0.6	4.1%
O=S(=O)(NCc1ccccc1)c1cccc2cccnc12	-9.8	-0.2	-5.0	0.678	2.6	0.0	9.0%
O=C(NCCc1c[nH]c2ccccc12)c1cc([N+](=O)[O-])cc([N+](=O)[O-])c1	-1.3	0.7	1.2	0.659	4.7	0.9	-11.7%
CC(C)CN1CCN=C1N(C)C	-1.7	-0.6	1.5	0.707	1.4	-0.1	·
CC(=O)c1ccc(OCC(=O)Nc2cccc(C(=O)Nc3c(C)n(C)n(-c4ccccc4)c3=O)c2)cc1	-1.0	1.3	·	0.701	4.5	·	·
CCCCNc1c2c3c(cccc3n(C)c1=O)C(=O)c1ccccc1-2	-629.0	-89.6	22.8*	0.733	-7.7	0.5	11.3%
CC(C)Cc1n[nH]c(=O)[nH]1	-6.7	2.1	3.6	0.797	6.2	-1.0	-3.6%
CC1Cc2ccccc2N1C(=O)COC(=O)c1ccc(Cl)nc1 (stereo not drawn)	-1.5	3.7	-0.6	0.687	-0.4	0.6	-7.1%
CCn1c(=O)c(=O)[nH]c2cc(C(=O)Nc3ccc(S(=O)(=O)N4CCCC4)cc3)ccc21	17.3	-0.6	-1.4	0.664	-41.5	1.1	-6.6%
COc1ccc(CN2CCC(Cc3ccccc3)CC2)c(C)c1C	1.6	1.3	5.6	0.643	2.0	0.4	-1.9%
Cc1ccc(-c2nnc(NC3CCCC3)s2)cc1	-7.6	-4.4	-7.8	0.606	-9.6	-2.5	-3.8%
Cc1c(Cl)c(C(F)F)nn1CC(=O)NC1C(=O)N2C(C(=O)O)=C(CSc3nnnn3C)CSC12 (stereo not drawn)	-5.1	-12.5	·	0.65	1.9	·	28.6%
O=C(NC(=O)N1CCN(c2ccc(F)cc2)CC1)c1ccccc1	-1.8	-1.6	3.2	0.636	2.6	-0.3	-1.2%
c1cncc(-c2nnc(-c3cccnc3)nn2)c1	0.5	1.6	0.9	0.677	5.8	-1.1	20.3%
CCCc1ccc(-c2cc(N)n[nH]2)cc1	-3.5	-4.3	-1.5	0.695	1.9	-1.8	2.7%
CCOC(=O)c1cc2c(ccn2C)n1Cc1ccccc1Cl	1.7	0.2	1.7	0.66	-0.3	0.3	-1.5%
CCOc1ccc(/C=C2\SC(=S)N(CCC(=O)Nc3ccc(C(=O)O)cc3)C2=O)cc1	7.1	3.0	-14.2	0.691	4.1	-0.4	9.6%
COc1cc(/C=N/NC(=O)c2cccnc2)ccc1OC(=O)c1cc(OC)c(OC)c(OC)c1	-5.0	-3.0	-6.8	·	·	0.6	·
Cc1ccc(N2C(=O)CC(Sc3nccc(C)n3)C2=O)cc1 (stereo not drawn)	-3.6	-4.0	-2.6	0.724	4.3	-0.1	·
O=C(COC(=O)c1cccc(F)c1)NC1CC1	3.3	-1.2	3.5	0.756	-0.5	0.0	-3.7%
COc1ccc(OC)c(NC(=O)Cc2ccc(NC3=NC4CS(=O)(=O)CC4S3)cc2)c1 (stereo not drawn)	0.0	0.2	-1.2	0.756	2.3	·	·
Cc1ccc(S(=O)(=O)N2CCC(C(=O)NCc3ccncc3)CC2)cc1	6.6	-0.7	-0.4	0.699	0.1	0.0	0.9%
COc1ccc(/C=C2\SC(=S)N(CCCC(=O)Nc3ccccn3)C2=O)cc1OC	11.0	16.3	-2.5	0.728	1.5	-0.1	·
Cc1noc(C)c1COc1ccccc1C(=O)N1CCN(S(=O)(=O)c2ccccc2C(F)(F)F)CC1	-3.1	3.5	-0.5	0.713	1.8	-0.2	4.5%
O=C(CCc1nc2ccccc2[nH]1)NCc1ccc2c(c1)OCO2	-7.0	4.4	-3.5	0.79	7.0	0.0	6.5%
CC(OC(=O)c1ccc(S(=O)(=O)N2CCCCC2)cc1)C(=O)Nc1ccc(C(N)=O)cc1 (stereo not drawn)	11.3	-2.2	·	0.716	4.8	·	·
COc1ccc(C(=O)COC(=O)C(CCSC)NC(=O)COc2ccccc2)cc1 (stereo not drawn)	6.8	2.3	-1.1	0.664	2.3	-0.1	6.5%
Cc1cc2cc(CN(Cc3ccco3)S(=O)(=O)c3c(C)ccc4nsnc34)c(=O)[nH]c2cc1C	15.7	-3.5	-5.1	0.761	-4.0	0.2	11.7%
COc1cc(/C=N/NC(=S)NCCN2CCOCC2)cc(OC)c1O	-2.1	1.9	-3.5	·	·	0.0	6.9%
Cc1ccc(NC(=O)NCCN2CCN(C(=O)Nc3ccc(C)cc3)CC2)cc1	-6.3	2.2	0.6	0.688	3.2	-0.1	·
CCOC(=O)c1c(NC(=O)CN2CCCc3ccccc32)sc(C(C)=O)c1C	-1.9	5.7	1.4	0.749	0.0	0.3	12.7%
